Screening data from PubChem.
KSHV LANA nucl: inhibitors of KSHV LANA binding to nucleosomes. z-score (concentration not given with the values). FITC-LANA1-23 / chicken nucleosome fluorescence polarization; active compounds read low. 51,000 tested, 0.3% active. AID 720717;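 active = both repeat wells score below -2 in polarization z-score versus plate sample wells, excluding overly bright wells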;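 also: 100 nL library stock added to about 30 µL; numbers are from one replicate; some results filed as inactive read as strong as hits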
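Assay system: FITC-LANA peptide and chicken nucleosomes; input: 240 nM purified chicken nucleosomes (480 nM peptide binding sites), final; also added: 50 nM FITC-LANA1-23 probe; medium: TEN-BT buffer, pH 7.5; doses: pin-transferred compound, 100 nL; times: 10–45 min, room temperature; technique: fluorescence polarization; replication: duplicates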
Ab BasE inh: BasE siderophore biosynthesis inhibition; purified BasE, fluorescence polarization binding displacement; inhibition, % (test concentration not listed); 84,000 tested, 0.1% active; AID 485350;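 active = both replicates above 25% with normal brightness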;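 also: 0% = negative plate control signal and 100% = positive plate control signal; stock transfer was 100 nL into about 30 µL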
Active calls of the source: *; nt = not tested or not shown. These rows are one share of the data (hit frequency here may not be typical).

SMILES	KSHV LANA nucl	Ab BasE inh
CCC(=O)c1ccc(CCCCCC(=O)O)s1	-0.65	1.8
Oc1ccc(I)nc1CCc1ccccc1	nt	0.5
CN1C(=O)/C(=C/c2ccc(Cl)cc2)N(C)C1=S	nt	2.8
O=C(NCCOc1ccccc1)c1ccccc1	0.25	1.4
O=C(NCc1cccn1Cc1ccccc1)NC1CCCC1	0.12	-0.7
CN(C)c1ccc(/C=C2\C(=O)N(c3ccccc3)N=C2C(=O)O)cc1	-0.85	1.6
CC(Sc1cccc[n+]1[O-])C(=O)NCC1CCCCC1 (stereo not given)	nt	-3.1
O=C(COc1ccc(S(=O)(=O)Nc2ccccc2)cc1)N1CCOCC1	0.3	2.0
O=C(c1ccc(S(=O)(=O)N2CCCCC2)cc1)N(c1ccccn1)C1CCCCC1	nt	2.4
O=C(NCCCN1CCOCC1)C1CCC(=O)N1CCc1ccccc1 (stereo not given)	0.77	2.7
CCOC(=O)C1CCN(c2nc(-c3cccc(Cl)c3)c3c(n2)-c2ccccc2OC3)CC1	0.04	1.9
O=C(Cc1ccccc1)OCc1nnc(-c2ccccc2)o1	0.18	-2.9
O=C(c1ccccc1)c1cc(Cl)ccc1NCC(=O)N1CCOCC1	nt	-0.6
O=C(NCc1ccco1)c1ccccc1NCC(=O)N1CCCc2ccccc21	nt	-4.6
CC(Sc1nc(-c2ccccc2)cc(C(F)(F)F)n1)C(=O)N1CCCC1 (stereo not given)	1.8	1.0
CC1(C)CN=c2s/c(=C\c3ccc(Cl)cc3)c(=O)n2C1	nt	-4.7
Cc1ccc(-c2csc(C/C(N)=N/O)n2)cc1	nt	0.6
N=C(N)c1cc(C(F)(F)F)cc(C(F)(F)F)c1	nt	0.7
C=C(C)Cn1cnc2ccccc21	0.94	-3.0
CCOC(=O)c1cc2c(=O)n3ccccc3nc2n(CCOC)c1=NC(=O)c1ccccc1	-0.46	-0.9
CC1CC(=O)N(CC(=O)Nc2ccc3c(c2)OCCO3)c2ccccc2S1 (stereo not given)	-0.15	-2.1
C=CCOc1nc(-c2cccs2)cc(-c2ccco2)c1C#N	0.77	-6.2
Cc1c(NC(=O)CSc2nnc(-c3cnccn3)s2)c(=O)n(-c2ccccc2)n1C	0.42	-1.2
O=C1CN(CCc2ccccc2)CC(=O)N1CCc1ccccc1	0.13	-0.2
O=C(CN1C(=O)c2ccccc2S1(=O)=O)N1CCC2(CC1)OCCO2	0.041	0.5
CC(C)(Oc1ccc(Cl)cc1)C(=O)OCC(=O)N1CCN(c2ccccc2)CC1	nt	0.4
CN1Cc2cc(C(=O)c3ccccc3O)cnc2NC1=O	nt	4.3
CS(=O)(=NS(=O)(=O)c1cccc2nsnc12)c1ccc(Cl)cc1 (stereo not given)	nt	1.9
CCn1c(CC(=O)OC)csc1=Nc1ccc(Cl)cc1	-0.98	-0.7
CCN(C(=O)CSc1nnc(Cc2ccccc2)o1)C1=CCCCC1	nt	0.8
COc1ccc(-c2c(C(F)(F)F)oc3c(CN4CCCC(C)C4)c(O)ccc3c2=O)cc1OC (stereo not given)	nt	0.8
Cc1csc(N(C(=O)c2ccc(S(=O)(=O)N3CCOCC3)cc2)c2ccccc2)n1	nt	-1.8
O=C(CSc1ccccc1)N1CCN(c2ccccc2)CC1	0.17	-1.0
CN(C)c1ccc(/C=C(\C#N)C(=O)OC(C)(C)C)cc1	-2	-1.6
COc1cccc(C(=O)CS(=O)(=O)c2ccc(C)cc2)c1	0.061	-2.6
CCOc1ccc(OCC)c(NS(=O)(=O)c2ccc3[nH]c(=O)c(=O)[nH]c3c2)c1	0.4	0.1
N#Cc1ccccc1OCc1ccccc1	-1.7	1.0
O=C(O)Cn1c(SC(F)F)nc2ccccc21	nt	0.6
Cc1noc(C)c1S(=O)(=O)N(Cc1ccccn1)Cc1ccccn1	0.28	-0.5
CCCCc1nc(NCc2ccccc2)c(C#N)c2c1CCCC2	-0.23	4.5
CC1=C/C(=N/N=c2\sc3ccccc3n2C)CC(C)(C)C1	nt	0.1
CCn1c(COC(=O)C2CSC3(C)CCC(=O)N23)nc2cc(S(=O)(=O)N(C)C)ccc21 (stereo not given)	nt	-1.9
Cc1nc(N2CCN(C(=O)c3ccco3)CC2)nc2c1C(=O)CC(c1ccccc1)C2 (stereo not given)	-0.2	5.8
CCCCn1c(N)c(C(=S)NC(=O)C2CC2)c(=O)[nH]c1=O	nt	0.5
C[N+]1(CCC(=O)NCc2ccccc2)CCCCC1	nt	-2.4
CCOC(=O)C1(c2cccn2C)Sc2ccccc2NC1=O (stereo not given)	nt	-0.1
O=C(N[C@@H](Cc1ccccc1)c1nc2ccccc2[nH]1)C1CC(=O)N(c2ccc3c(c2)OCCO3)C1 (stereo not given in full)	nt	0.4
O=C1CCCCC1Sc1nc2ccccc2s1 (stereo not given)	nt	0.1
CNc1nnc(Sc2nnc(NC)s2)s1	0.23	1.1
CCN(c1ccccc1C(=O)O)S(=O)(=O)c1ccc2[nH]c(=O)[nH]c2c1	-0.16	1.8
O=C(CC1CCCCC1)Nc1ccc2nc3n(c(=O)c2c1)CCCC3	-0.38	-4.2
COCCNc1nc(-c2ccc(S(=O)(=O)N3CCCCC3)cc2)cs1	nt	5.0
O=C(Oc1cccc(-n2cnnn2)c1)C1CCCCC1	-1.6	-0.2
N#C/C(=C\c1ccco1)C(=O)C1CC1	0.7	1.0
COC(=O)c1c(C)[nH]c(C(=O)C(C)OC(=O)c2ccccc2NS(=O)(=O)c2ccc3[nH]c(=O)[nH]c3c2)c1C (stereo not given)	nt	-0.5
COc1cccc(C(=O)N(C)CC(OC)OC)c1	0.31	0.4
O=C(NCCN1CCNC1=O)c1sc2ccccc2c1Cl	nt	1.0
CCc1c(C)nc2c(C)cccc2c1SCCC#N	0.5	0.7
CNc1nc(-c2ccc(F)c(F)c2)c(C)s1	nt	-0.8
CCN(CC)Cc1nc2ccccc2[nH]1	0.11	0.7
Other entries follow:
SMILES	KSHV LANA nucl	Ab BasE inh
CCOc1cc(S(=O)(=O)n2c(C)nc3ccccc32)ccc1F	-0.9	0.5
COc1ccc(NC(=O)CC(C)S(=O)(=O)c2ccc3c(c2)CC(C)N3C(C)=O)cc1 (stereo not given)	-0.96	0.5
CN(C=O)CP(=O)(O)CN1CCCCC1	nt	-0.1
CNC(=O)c1cc(S(=O)(=O)N2CCc3ccccc32)ccc1C	-0.84	0.2
CSc1ccc(S(=O)(=O)Nc2ccccc2C(=O)N2CCOCC2)cc1	-0.71	0.6
CCc1ccccc1NC(=O)c1cc(C)on1	-0.35	0.1
CCN(CC)/C(=C\C#N)c1ccc(F)cc1	nt	1.9
CCN(CC)CCC(=O)N1N=C(c2ccc(C)cc2)CC1c1ccc(OC)cc1 (stereo not given)	nt	-20
COCCCn1cc(-c2c(-c3cc(=O)oc4cc(OC)ccc34)oc3cc(OC)ccc23)cc(C#N)c1=O	nt	1.4
CSC1=N/C(=C\c2ccccc2Cl)C(=O)N1N(C)C	nt	0.1
COCC(=O)N1N=C(c2cccc(NS(C)(=O)=O)c2)CC1c1ccccc1F (stereo not given)	0.38	-2.1
Cc1nc(CC(=O)N/N=C/c2ccc(CSC(F)F)o2)cs1	nt	-3.1
Cc1cc(=O)[nH]c(SCC(=O)N(C)c2ccccc2)n1	-1.4	1.1
CCN(CC)c1ccc(NC(=O)COC(=O)Cn2nnc(-c3ccccc3)n2)cc1	nt	2.6
CC(C)(C)c1ccc(NC(=O)N2CCOCC2)cc1	nt	2.7
O=C(NCCN1CCCc2ccccc21)Nc1cccc2c1CCCC2	0.34	-0.6
Cc1ccccc1N(Cc1nnc2n1CCCCC2)C(=O)Nc1ccc(F)cc1	nt	2.7
Cc1cc(C)cc(-n2ncc3c(OCC(=O)N4CCCCC4)ncnc32)c1	nt	-7.8
O=C(COC(=O)C(Cc1ccccc1)N1C(=O)c2ccccc2C1=O)Nc1ccc2[nH]c(=O)[nH]c2c1 (stereo not given)	nt	0.1
O=C(COc1ccccc1)Oc1ccccc1	-0.22	2.5
S=C(NCc1cccs1)Nc1ccccc1	nt	4.0
Cc1ccc(-c2nc(-c3ccccc3)no2)cc1	nt	-1.7
c1ccc(-c2nnc(OCC3CCCO3)c3ccccc23)cc1 (stereo not given)	nt	28*
CCOC(=O)c1cnn(C(=O)c2c(C)nc3ccccn23)c1N	nt	-0.5
CNCC(=O)N1CCOCC1	nt	2.6
COCCN(Cc1ccc(C)c(Br)c1)S(=O)(=O)c1c[nH]c(C(=O)OC)c1	-0.42	2.1
COc1ccc2c(c1)c(=O)c1ccoc1n2C	-0.036	2.8
CCc1ccc(C2CC(=O)NC(NC(=O)c3ccccc3)=N2)cc1 (stereo not given)	0.66	0.2
CC(C)(C)C(=O)N(Cc1ccc(Cl)cc1)Cc1cccnc1	-0.89	nt
COc1cc(-c2ccc(N=Nc3ccc4c(S(=O)(=O)O)cc(S(=O)(=O)O)c(N)c4c3O)c(OC)c2)ccc1N=Nc1ccc2c(S(=O)(=O)O)cc(S(=O)(=O)O)c(N)c2c1O	-0.23	8.8
S=C(NCc1ccccc1Cl)NC12CC3CC(CC(C3)C1)C2	nt	-0.7
COc1cc(NC(=O)C(NS(=O)(=O)c2ccc3c(c2)oc(=O)n3C)C(C)C)cc(OC)c1 (stereo not given)	-0.58	1.0
CCn1nc(CC(=O)O)c2ccccc2c1=O	-0.28	-0.2
O=C(O)c1cc(S(=O)(=O)NCC2COc3ccccc3O2)ccc1Cl (stereo not given)	nt	3.7
c1ccc(-c2nc(CSc3nncn3-c3ccccc3)cs2)cc1	nt	0.5
CC12CC3CC(C)(C1)CC(C(=O)N1CCCC1)(C3)C2	-0.047	-0.9
O=S(=O)(c1ccc(-c2cc(C(F)(F)F)no2)s1)N1CCCCC1	nt	2.9
CCN1CCN(c2ccc(NC(=O)c3cccc4c3C(=O)N(Cc3cccnc3)C4)cc2)CC1	-0.69	2.6
O=C(CSc1ncc(-c2ccccc2)[nH]1)Nc1cccc(O)c1	-0.31	15
CC(C)(C)n1ncc2c(=O)n(CC(=O)c3ccc(Cl)cc3)cnc21	1.2	-2.4
CC(C)CN(CC(C)C)Cn1[nH]c(-c2cccs2)nc1=S	nt	0.5
CC1CC(C)CN(C(=O)C(C)N(C)CC(=O)Nc2ccccc2Cl)C1 (stereo not given)	nt	-3.2
Cc1ccc(C(=O)CSc2nc(C)cc(C)c2C(N)=O)cc1	nt	-0.5
COc1cc2c(cc1OC)CN(C(=O)Cc1cccs1)CC2	nt	-0.4
Cc1nc2ccccc2c(=O)n1-c1ccc(NS(C)(=O)=O)cc1	-0.45	4.3
CCN(CC1COc2ccccc2O1)Cn1c(=O)oc2ccccc21 (stereo not given)	nt	1.0
Cc1ccc2c(c1)c1c3n2CCNC3CCC1 (stereo not given)	0.079	0.2
CCn1c2ccccc2c2n[nH]c(=S)nc21	nt	3.9

Complete entries from above. Screens in order: KSHV LANA nucl | Ab BasE inh
CC1CC(C)CN(C(=O)C(C)N(C)CC(=O)Nc2ccccc2Cl)C1 (stereo not given) across the screens: nt | -3.2
O=C(CSc1ncc(-c2ccccc2)[nH]1)Nc1cccc(O)c1 across the screens: -0.31 | 15
Cc1ccc2c(c1)c1c3n2CCNC3CCC1 (stereo not given) across the screens: 0.079 | 0.2
CCn1c2ccccc2c2n[nH]c(=S)nc21 across the screens: nt | 3.9

The listing picks up, repeating the 5 entries before the break.
SMILES	KSHV LANA nucl	Ab BasE inh
COc1cc2c(cc1OC)CN(C(=O)Cc1cccs1)CC2	nt	-0.4
Cc1nc2ccccc2c(=O)n1-c1ccc(NS(C)(=O)=O)cc1	-0.45	4.3
CCN(CC1COc2ccccc2O1)Cn1c(=O)oc2ccccc21 (stereo not given)	nt	1.0
Cc1ccc2c(c1)c1c3n2CCNC3CCC1 (stereo not given)	0.079	0.2
CCn1c2ccccc2c2n[nH]c(=S)nc21	nt	3.9
Cc1csc(SCC(=O)Nc2ccc(N3CCCCC3)cc2)n1	nt	0.1
COc1cc(Cl)c(C)cc1-n1ccnc(NCCCOC(C)C)c1=O	0.49	0.9
COc1cccc(C(=O)N2CCN(C3CCC(c4ccccc4)CC3)CC2)c1OC (stereo not given)	-1.5	-2.2
O=C(OCCN1CCCCC1)c1cc2ccccc2o1	-0.91	-1.9
Cc1cc(F)ccc1NCC(=O)Nc1ccc(C#N)cc1	nt	2.9
Cc1ccc(SCC(=O)NC2(C#N)CCCCC2)c(C)c1	nt	-0.2
CC(C(=O)NC1CCCC1)n1c2ccccc2c2cn[nH]c(=O)c21 (stereo not given)	-1.3	-1.4
Cc1ccc(Oc2ncccc2NC(=O)CN2CCC(NC(=O)c3ccccc3)CC2)c2c1CCC2	0.078	1.9
N#Cc1ccc[nH]c1=S	nt	0.3
Cc1cc(C)cc(C(=O)N(C)CC(=O)Nc2ccc(F)cc2)c1	nt	-2.2
CC1(C)C2CC=C(/C=N/NC(=O)C3CC3)C1C2 (stereo not given)	nt	0.6
Cc1ccc(NC(=S)N2CCN(CCO)CC2)c(C)c1	0.086	-0.8
O=C(CSc1nc2ccccc2s1)OCc1nnc(-c2ccccc2)o1	nt	-2.1
CCCN1C(=O)CC(=O)N=C1SCC(=O)Nc1ccccc1F	nt	-0.8
COc1ccc(/C=C2\CCC/C(=C\C=N\N(C)C)C2=O)cc1	nt	1.1
CCCCSc1ncnc2c1cnn2-c1ccc(Cl)cc1	-0.45	0.7
CCn1cc(C(=O)NCC(C)C)c(=O)c2cc(F)c(N3CCN(C(=O)c4ccco4)CC3)cc21	-1.1	2.9
Cc1ncc(CC(=O)O)s1	0.51	-0.6
